Compound activity (PubChem)
HSD17B inh = qHTS Assay for Inhibitors of HSD17B4, hydroxysteroid (17-beta) dehydrogenase 4 | AID 893, 2007 | 7.6% of 75,000 active | 3-hydroxyacyl-CoA dehydrogenase type-2 (Homo sapiens), Q99714 | Potency, µM (series often up to 57.1 µM), for the others: top-dose activity change, negative = inhibition, actives largely listed as inhibitors | recombinant HSD17B10, NADH fluorescence kinetic; many of its hits are not listed in these tables; active = well fitted inhibition curve with a large enough effect; inconclusive = small, poorly fitted or top-dose-only effect; inactive = no such curve, though single readings can be large or run the other way;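 note: the protocol describes HADH2 (HSD17B10) and not the HSD17B4 of the title; nearly all actives have a fitted effect of over 70% in size; most hits overshoot -100% by far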
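Enzyme plus compound, 15 min room temperature; substrate mix added (NAD+ 1 mM, beta-hydroxybutyryl-CoA 90 uM final); plates read kinetically for NADH fluorescence. HADH2 was His-tagged, E. coli-derived, 20 nM.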
* = called active by the depositor; u = inconclusive; [ ] = remark or other dose. % is set by controls: 0 for no effect and ±100 for the full control effect; potency is the fitted concentration of half-maximal effect. A portion of the library (hit frequency here may not be typical).

mol	HSD17B inh
O=C(NC(Cc1ccccc1)C(=O)OCC(=O)N1CCc2ccccc21)c1ccco1 (centres undefined)	-1%
CCCn1c(SCC(=O)c2cc(OC)ccc2OC)nc2c1c(=O)n(C)c(=O)n2C	1%
Cn1c(Cc2ccc3c(c2)OCO3)nnc1SCC(=O)N1CCc2ccccc2C1	-12%
O=C1OCc2cccc3cccc1c23	25µM*
CCOc1cc(C)c(S(=O)(=O)N2CCCC2)cc1C	-13%
O=S(=O)(NC(=NC1CCCC1)C(F)(F)F)c1ccccc1	3%
COc1ccccc1NC(=O)CSc1nnc(Cn2cnc3ccccc32)n1C	3%
COc1ccc(OC)c(C2C(C(N)=O)=C(C)Nc3nc(CCCO)nn32)c1 (centres undefined)	9%
COc1ncc2nc(C)c(=O)n(C[C@H]3CCCO3)c2n1	-17%
O=C(CN1CCC(n2nnc3cc(F)ccc32)CC1)N1CCc2ccccc2C1	-9%
O=C(O)c1ccc2noc(-c3ccccc3)c2c1	-4%
O=S(=O)(NCc1ccco1)N1CCOCC1	1%
Cc1cc(C(=O)Nc2c(F)cc(F)cc2Br)no1	6%
S=c1nc(-c2ccccc2)n(CCCn2ccnc2)c2c1CCCC2	-22%
COCCN1Cc2cccc(C(=O)Nc3c(C)cccc3C)c2C1=O	-4%
CC(C)C(c1nnnn1C1CCCC1)N1CCc2ccccc21 (centres undefined)	-5%
N#Cc1cc2c(nc1SCC(=O)N1CCCCC1)CCCCC2	4%
CCn1c(=O)c2ccccc2n2c(SCC(=O)NCc3cccs3)nnc12	-5%
CCCN1CCN(CCCNC(=O)Cn2cc3c(n2)CCCC3)CC1	1%
N#Cc1nc(-c2ccco2)oc1NCc1ccc(F)cc1	32µM*
CCOC(=O)N1CCC(Nc2c(-c3ccc(C)c(C)c3)c(=O)c2=O)CC1	-1%
O=C(Cc1ccc(Cl)c(Cl)c1)OCCN1CCCC1	-5%
Cc1ccc(NS(=O)(=O)c2cc(C(=O)N3CCOCC3)ccc2C)cc1C	2%
Cc1cc(NC(=O)CSc2ccc3nnc(-c4cccs4)n3n2)no1	1%
COc1ccc(CN(Cc2ccccn2)C(=O)CN2C(=O)COc3ccccc32)cc1	-4%
CCn1c(=O)c2cc(C(=O)N3CCOCC3)sc2c2ccccc21	32µM*
COc1ccccc1C(c1nnnn1C1CCCC1)N1CCN2CCCC2C1 (centres undefined)	8%
CC(=NCCCn1ccnc1)C1=C(O)c2ccccc2C1=O	-5%
CC1(C)C(=O)OC(c2cc(Br)ccc2O)C(C)(C)C1=O (centres undefined)	2%
O=C(NCCCN1CCOCC1)c1ccc(-n2c(=O)c(=O)[nH]c3ccccc32)cc1	-9%
Cc1ccc(-n2nnnc2SCC(=O)Nc2ccccc2N2CCCCC2)cc1C	2%
CCC(C)N=C1SCC(C)(/C=N/O)S1 (centres undefined)	1%
CCOCCn1c(SCCc2ccccc2)nc2c1c(=O)[nH]c(=O)n2C	-3%
c1cncc(-c2nn3cnnc3s2)c1	1%
O=C(NC1CCS(=O)(=O)C1)C12CC3CC(CC(C3)C1)C2 (centres undefined)	11%
O=C(CC1(O)C(=O)Nc2ccc(Br)cc21)c1ccc2c(c1)OCO2 (centres undefined)	10%
Cc1ccc2c(c1)N(CCC(=O)NCc1cccnc1)C(=O)CO2	-2%
Clc1ccc(C2[C@H]3CN(Cc4ccc(-c5ccccc5)cc4)[C@H](c4ccccc4)C34CC2(c2ccccc2)C4)cn1 (some centres undefined)	-4%
COc1ccc(CN2CN(C(C)C)CSC2=S)cc1	-1%
COc1ccc(-c2noc(-c3ccccc3C(=O)Nc3cccc(OC)c3)n2)cc1	-19%
COc1ccc(C2CC(=O)c3c([nH]c(C(=O)OC(C)C)c3C)C2)cc1OC (centres undefined)	8%
COC(=O)[C@@]1(Cc2ccc(OC)cc2)[C@@H]2[C@@H](CC(=O)[C@H]2CC(=O)C(=O)N2CCCC2)CN1C(=O)c1ccccc1	2%
O=C(NCC1COc2ccccc2O1)C1CCCN(S(=O)(=O)c2cccc3nsnc23)C1 (centres undefined)	-7%
COc1ccc(C2CC(c3ccccc3)Nc3nc(NC(=O)c4cccs4)nn32)cc1 (centres undefined)	10%
CCN(CC)S(=O)(=O)c1ccc(C(=O)NC2=C(C(=O)OC)SCC2)cc1	-5%
O=C(Cn1cnc2c(nnn2-c2ccccc2)c1=O)NCC1CCCO1 (centres undefined)	-4%
CCc1nc2c(c(=O)[nH]1)C1(CCCC1)Cc1ccccc1-2	u
c1cncc(CNc2ncncc2-c2ccc3c(c2)OCO3)c1	-19%
Cc1ccc(C)c(Cn2c(C(C)O)nc3ccccc32)c1 (centres undefined)	17%
COc1ccc(Cc2nnn(CC(=O)O)n2)cc1	0%
O=C(N/N=C\c1cccc(O)c1)c1ccncc1	5%[11.4 µM]
CCOc1c(OC)cccc1C1CC(=O)Nc2cc3c(cc21)OCCO3 (centres undefined)	0%
COc1ccc(CN(Cc2ccncc2)C(=O)CCC(=O)O)cc1	-1%
O=C1CCCN1CN(C(=O)c1ccc2c(c1)OCO2)c1ccc(F)cc1	-29%
CCOCCCNC(=O)C1c2ccccc2C(=O)N2CCc3ccccc3C12 (centres undefined)	-6%
Cc1ccc(S(=O)(=O)N2c3ccc(S(N)(=O)=O)cc3CC2C)cc1 (centres undefined)	0%
COc1ccc(-c2ccc(=O)n(CC(=O)N3CCN(c4ccccc4OC)CC3)n2)cc1	-8%
Cc1ccc(SCc2nc(-c3ccncc3)no2)cc1	-22%
CCN1C(C)=C(C(=O)OC)C(c2ccccc2)N2C(=O)[C@@]3(C(=O)OC)O[C@@]12C1C(=O)N(c2ccccc2)C(=O)C13 (some centres undefined)	-3%[11.4 µM]
O=C(O)C[C@@H](C(=O)O)C1c2ccccc2-c2ccccc21	-2%[11.4 µM]

Next compounds.
mol	HSD17B inh
Cc1occc1C(=O)Nc1ccc2c(c1)CCC2	-3%
COC(=O)c1ccc2c(c1)NC(=O)C1CCCN21 (centres undefined)	32µM*
Cc1cc(C)n2nc(Cc3ccccc3)nc2n1	9%
CC(C)CO/N=C1/C[C@@H](O)[C@@H](O)[C@@H]2[C@@H]3C(=O)N(C(C)(C)C)C(=O)[C@H]3CC[C@H]12	5%[11.4 µM]
COc1ccc(S(=O)(=O)Cc2ccc(C(=O)N3CCN(c4ncccn4)CC3)o2)cc1	-13%
COc1c(S(=O)(=O)N2CCCC2)ccc(Cl)c1Cl	9%
O=C(CCCCn1c(=O)[nH]c2ccccc2c1=O)NCCC1=CCCCC1	-21%
Cc1c(C(=O)NCCCN2CCCC2=O)oc2ccc(S(=O)(=O)N3CCOCC3)cc12	7%
CCc1nc(N)c(C#N)c(-c2cccn2C)c1C	u
Cc1ccc2nsnc2c1S(=O)(=O)N1CCCC1	-1%
CCOC(=O)C1=C2N(C)c3ccccc3N2CCC1=O	0%
CC(C)Cn1c(SCc2nnc(-c3cccs3)o2)nc(O)cc1=O	-10%
O=C(c1cc(C(F)(F)F)cc(C(F)(F)F)c1)N1CCC[C@@]2(CCN(Cc3ccccc3)C2)C1	-5%
O=C(CSc1nc2nc(-c3cccs3)cc(C(F)(F)F)c2c(=O)[nH]1)NCc1ccco1	25µM*
CCCCC[C@H](O)/C=C\[C@@H]1[C@H](O)CC(=O)[C@@H]1CCCCCCC(=O)O	-4%[25.6 µM]
Cc1c(C(=O)O)nc(/C=C\C(=O)O)[nH]c1=O	-1%[11.4 µM]
CCN(CC(=O)NCc1cccs1)c1ccc(S(=O)(=O)N2CCOCC2)cn1	2%
CCCCN(Cc1cc2cc(OC)ccc2[nH]c1=O)C(=O)c1ccccn1	32µM*
COc1cccc(OCC(=O)NC2CCCCC2)c1	4%
CCN(CCCNC(=O)CN(C)S(=O)(=O)c1ccc2c(c1)CCC(=O)N2)c1cccc(C)c1	16%

A draw from above in order of count of non-hydrogen atoms, smallest number first.
mol	HSD17B inh
COC(=O)c1ccc2c(c1)NC(=O)C1CCCN21 (centres undefined)	32µM*
CC(C)Cn1c(SCc2nnc(-c3cccs3)o2)nc(O)cc1=O	-10%
CCN(CCCNC(=O)CN(C)S(=O)(=O)c1ccc2c(c1)CCC(=O)N2)c1cccc(C)c1	16%

Continued.
mol	HSD17B inh
CCOc1cc2[nH]c(=O)n(CCC(=O)N3CCN(c4ccccc4OC)CC3)c(=O)c2cc1OCC	-25%
CC(=O)OC1CC(C)OC(C)O1 (centres undefined)	2%
CCOc1ccccc1N(C(=O)c1ccco1)C(C(=O)NC1CCCC1)c1cccnc1 (centres undefined)	13%
c1ccc(CCn2nnnc2CN2CCc3ccccc32)cc1	5%
CC1(C)Oc2ccc(C(=O)NC3CCCC3)cc2N(CC(=O)NC2CCCC2)C1=O	-3%
CCN(CC)CC(=O)c1ccc(-c2ccccc2)cc1	-16%
COc1ccc(OC)c(S(=O)(=O)n2nnc3ccccc32)c1	0%
NS(=O)(=O)c1ccc(NC(=O)CSC2=NC(=O)C(c3ccccc3)C(=O)N2)cc1 (centres undefined)	14%
CC1Cc2nc(SCC(=O)N3CCOCC3)n(-c3ccccc3)c(=O)c2S1 (centres undefined)	-6%
CCOC(=O)Cn1nnnc1CN(Cc1ccc(OC)cc1)Cc1cc2cc(CC)ccc2[nH]c1=O	-2%
CCCCCOC(=O)Cn1c(=O)oc2ccccc21	-1%
CCC(C)(C)n1c(=O)[nH]c2c(c1=O)CCC2	7%
O=C(CSc1n[nH]c(-c2ccc(S(=O)(=O)N3CCCCC3)cc2)n1)Nc1nccs1	25µM*
CCOCC(=O)Nc1cc(OC)c(Cl)cc1OC	-1%
O=C(CN1C(=O)C2(OCCO2)c2ccccc21)c1ccc(Br)cc1	-2%
COc1ccc(NC2CC(=O)N(c3cccc(C)c3)C2=O)cc1 (centres undefined)	1%
O=S(=O)(c1cccc(-n2cnnn2)c1)N1CCOCC1	7%
COCCn1nnnc1C(c1ccc(OC)c(OC)c1)N1CCc2ccccc21 (centres undefined)	-9%
COc1cc(C)c2occ(/C(C)=N\O)c2c1	-4%
COc1ccc(OC)c(N(CC(=O)NCc2ccccn2)S(C)(=O)=O)c1	7%
O=C(CCSc1ccccc1)NCC1CCCO1 (centres undefined)	9%
Cc1ccc2cc(-c3noc(C4CCCCC4)n3)c(=O)[nH]c2c1	u
O=C(c1cc(C2CC2)on1)N1CCN(c2ccc(F)cc2)CC1	-6%
COc1ccc(OC)c(C2C(C(C)=O)=C(O)C(=O)N2CCC(=O)O)c1 (centres undefined)	-1%
CC(C)(C)N1C(=O)c2ccc(C(=O)O)cc2C1=O	13%
Cc1cc(C(=O)OCC(=O)Nc2ccc(F)cc2)c(C)o1	4%
O=C(C1CCCN(S(=O)(=O)c2cccs2)C1)N1CCC(N2CCCCC2)CC1 (centres undefined)	5%
O=C(COc1ccc2c(c1)CCC2)N1CCc2ccccc21	-4%
CCn1c2ccccc2c2nnc(SCN3C(=O)c4ccccc4C3=O)nc21	u
CN(C)C(=O)c1ccc(-c2nc(NCc3ccccc3)c3ccccc3n2)cc1	-9%
C=CCOc1ccccc1CNn1nnnc1N	2%
Cc1ccc(C)n1-n1c(C)nc2sc(-c3ccccc3)cc2c1=O	u
O=S(=O)(c1ccccc1)N1CCN(C2CCN(Cc3ccccc3)CC2)CC1	4%
Nc1ncnc2c1nc(Br)n2C1OC(CO)C(O)C1O (centres undefined)	-5%
O=C(OC(C(=O)NCc1ccc2c(c1)OCO2)c1ccc(Cl)cc1)c1ccco1 (centres undefined)	-6%
O=C(OCc1ccco1)c1ccc(S(=O)(=O)N2CCCCC2)cc1	-16%
O=C(Nc1cccc(C(=O)N2CCOCC2)c1)c1cncc(Br)c1	2%
Clc1ccc2nc(N3CCCCC3)[nH]c2c1	16%
O=C(COC(=O)Cc1cccc(C(F)(F)F)c1)NCC1CCCO1 (centres undefined)	8%
Nc1ncnc2c1nc(Sc1ccc(Cl)cc1)n2[C@@H]1O[C@H]2COP(=O)(O)O[C@@H]2[C@H]1O	4%
Cc1cccc(C)c1NC(=O)c1c(-c2ccccc2)noc1C	1%
Cc1cccc(CNC(=O)c2ccccc2N)c1	32µM*
CO[C@@]1(NC(=O)Cc2cccs2)C(=O)N2C(C(=O)O)=C(COC(N)=O)CS[C@@H]21	u
Nc1nonc1N1CCCCC1	14%
COC(=O)[C@@H](NC(=O)N(C1CCCCC1)C1CCCCC1)C(C)C	-2%
CCOC(=O)c1ccccc1NC(=O)CN1C(=O)CCS(=O)(=O)c2ccccc21	u
O=C(O)CSc1ccccn1	-3%
Cc1sc2nc(CN(CCc3ccccc3)C(=O)c3ccco3)[nH]c(=O)c2c1C	0%

Shown field by field: entries from further up.
Cc1cccc(CNC(=O)c2ccccc2N)c1
- HSD17B inh = 32µM*
Cc1cccc(C)c1NC(=O)c1c(-c2ccccc2)noc1C
- HSD17B inh = 1%
Nc1nonc1N1CCCCC1
- HSD17B inh = 14%
COC(=O)[C@@H](NC(=O)N(C1CCCCC1)C1CCCCC1)C(C)C
- HSD17B inh = -2%
